Assay outcomes as filed in PubChem.
rRNA inh HTS = reduced GFP signal of wild-type E. coli, primary screen, bacterial rRNA inhibitor project, GFP/RFP fluorescence, OD600, single point | GFP signal change (wild-type ribosome), % (no concentration beside the values) | E. coli WT GFP vs humanized-ribosome RFP mutants, 24 h; stronger effect = lower value; DMSO median 0, no signal -100 | 350,000 compounds, 1.6% hits;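 active means significant combined selectivity score with lowered wild-type GFP, culture density cut under 30%, mutant RFP and density less affected; inactive means any of these conditions unmet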; further: one replicate is shown; some compounds called inactive have numbers as strong as hits
FGF22 binding = binders of human FGF22 protein, primary screen, FGF22 synaptogenesis inhibitor project, biophysical, thermal shift, single point; recombinant FGF22 thermal shift, SYPRO orange fluorescence; percent of sucrose octasulfate shift, DMSO zero; calls only at 9.99 µM; 340,000 compounds, 1.5% hits;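 active means melting point raised past a set limit in the mean and every replicate; inconclusive means no clear call; three in four hits are not shown here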
Target sequence (Q9HCT0 whole entry, looked up): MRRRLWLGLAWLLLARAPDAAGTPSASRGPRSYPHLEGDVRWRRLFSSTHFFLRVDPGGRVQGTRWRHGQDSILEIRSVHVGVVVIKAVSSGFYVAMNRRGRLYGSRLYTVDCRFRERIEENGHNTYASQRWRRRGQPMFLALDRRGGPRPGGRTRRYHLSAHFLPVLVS
T cruzi repl = inhibitors of intracellular T. cruzi growth, primary screen, luminescence, NIH3T3 host cells; T. cruzi beta-gal in NIH3T3, 90 h; 300,000 compounds, 1.4% hits; inhibition, % (test concentration not listed);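 active means mean inhibition across valid replicates above about 55%, limit read from the data; inconclusive means mean below that limit but half or more replicates reach it; inactive means mean below it, under half of replicates reach it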;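 further: signal also drops with host cell toxicity which is not excluded here; 0% = plate median of DMSO wells and 100% = zero luminescence signal; higher percent means less beta-gal luminescence so fewer parasites; stock transfer was 50 nL into about 50 µL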
MLL AF4-AF9 inh = inhibitors of AF4 peptide binding to AF9, primary screen, biochemical, AlphaScreen, biotin-AF4 peptide, FLAG-AF9, single point. inhibition, % at 10 µM. 350,000 compounds, 0.47% hits;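 active means every replicate reaching a set inhibition limit, whatever the replicate mean, cut at about 25% in these data; inconclusive means mean inhibition reaches that limit but some replicates miss it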;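 further: 0% = plate neutral control median and 100% = total signal loss; the record names both 10 and 1 µM as test concentration; the first replicate is given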
Target sequence (P42568 whole entry, looked up): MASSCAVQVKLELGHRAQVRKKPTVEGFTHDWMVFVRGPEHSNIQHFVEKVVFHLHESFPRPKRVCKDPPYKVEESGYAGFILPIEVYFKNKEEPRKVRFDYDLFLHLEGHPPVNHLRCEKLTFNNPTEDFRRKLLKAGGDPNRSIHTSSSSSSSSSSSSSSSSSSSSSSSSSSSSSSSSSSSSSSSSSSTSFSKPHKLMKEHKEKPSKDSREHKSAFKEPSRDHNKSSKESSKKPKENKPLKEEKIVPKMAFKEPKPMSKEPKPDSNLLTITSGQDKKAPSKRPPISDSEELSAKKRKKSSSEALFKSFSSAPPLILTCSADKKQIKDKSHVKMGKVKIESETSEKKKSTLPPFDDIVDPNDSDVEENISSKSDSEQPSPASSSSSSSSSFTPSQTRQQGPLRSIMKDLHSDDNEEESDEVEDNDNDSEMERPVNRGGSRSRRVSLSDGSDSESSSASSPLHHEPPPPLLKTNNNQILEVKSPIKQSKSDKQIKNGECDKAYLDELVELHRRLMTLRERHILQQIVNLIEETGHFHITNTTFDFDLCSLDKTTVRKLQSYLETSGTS
Beta apoptosis = inhibitors of cytokine-induced beta cell apoptosis, primary screen, luminescence | INS-1E cytokine-induced death, ATP luminescence, 48 h; percent of positive-control rescue, neutral wells zero | protection from apoptosis, % (test concentration not listed) | 300,000 compounds, 0.8% hits | AID 435005, 2010;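 active means all replicates at 75% or more, or half of them and the mean; inconclusive means half reach 75% but not the mean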;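 further: 0% = cytokine-treated negative control wells and 100% = positive control rescue; higher means more ATP so stronger rescue from cytokine killing; wells of about 40 µL received 100 nL stock; the first replicate is given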
ALR H2O2 inh = inhibitors of human ALR sulfhydryl oxidase, primary screen, biochemical, H2O2 detection, HRP-luminol luminescence, single point; FAD-linked sulfhydryl oxidase ALR (Homo sapiens), P55789; purified ALR, DTT oxidation; inhibition, % (no concentration beside the values); 290,000 compounds, 3.8% hits; AID 485317, 2010;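 active means mean and each replicate at 75% or more; inconclusive means only one of the two met; inactive means neither met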;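 further: stock transfer was 7.5 nL into about 7.5 µL; 0% = neutral wells and 100% = wells with inactivated enzyme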
Target sequence (P55789 whole entry, looked up): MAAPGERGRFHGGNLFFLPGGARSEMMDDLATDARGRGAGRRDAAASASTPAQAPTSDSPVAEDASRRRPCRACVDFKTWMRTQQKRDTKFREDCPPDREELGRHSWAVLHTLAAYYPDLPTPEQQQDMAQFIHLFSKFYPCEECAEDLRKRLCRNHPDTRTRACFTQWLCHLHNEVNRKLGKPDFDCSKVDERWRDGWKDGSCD
Calb FLC = C. albicans growth inhibition with fluconazole, primary screen, CaCi-2 strain, Alamar Blue fluorescence; C. albicans CaCi-2 (fluconazole-resistant clinical isolate) + fluconazole, 48 h; growth inhibition, % (concentration not given with the values); 300,000 compounds, 0.57% hits; AID 1979, 2009;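 active means most replicates above 75%; inconclusive means exactly half above 75%; inactive means most below 75%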;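 further: all wells also contain fluconazole at 8 µg/ml as a sub-toxic cotreatment; 0% = median of DMSO wells and 100% = median of geldanamycin control wells; wells of about 8 µL received 7.5 nL stock; the first replicate is given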
RanGTP-Impb inh = inhibitors of RanGTP-importin-beta interaction, primary screen, biochemical, FRET, CFP-Ran, YFP-importin-beta, homogeneous. inhibition, % (no concentration beside the values). 300,000 compounds, 1.1% hits. cell-free CFP-Ran/YFP-importin-beta FRET ratio. Ran GTPase (GTP-bound) - importin-beta complex;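 active means most replicates above 15%; inconclusive means exactly half above 15%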;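 further: 0% = DMSO wells and 100% = Ran loaded with GDP instead of GTP; wells of about 40 µL received 100 nL stock; the first replicate is given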
rRNA inh HTS OD600 = second read-out of rRNA inh HTS, no call of its own (marks repeat the call); OD600 change, %; measured here: OD600 growth;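 optical density of the mix in the first replicate; 0 = DMSO median and -100 = no signal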
rRNA inh HTS RFP = recorded beside rRNA inh HTS, whose call it bears; RFP signal change, %; measured here: RFP humanized mutant strains;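 first replicate; 0 = DMSO median and -100 = no signal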
* = called active by the depositor; i = inactive; ? = inconclusive; . = no result given. This is a subset. The share of hits here may be higher or lower than overall.

SMILES	rRNA inh HTS	rRNA inh HTS OD600	rRNA inh HTS RFP	FGF22 binding	T cruzi repl	MLL AF4-AF9 inh	Beta apoptosis	ALR H2O2 inh	Calb FLC	RanGTP-Impb inh
COc1ccccc1NS(=O)(=O)c1cc(NC(=O)CCNC(C)=O)ccc1C	14	8	0.4	i	10	-1.8	-3	4	11	-0.6
O=C(NC(Nc1nc2ccccc2s1)(C(F)(F)F)C(F)(F)F)c1ccccc1	.	.	.	.	-3	.	-10	-2	-18	1.2
Cc1onc(-c2ccccc2)c1CNS(=O)(=O)c1cccc(Br)c1	-23	-39	-4.8	i	12	0.3	3	-8	5	4.7
CCc1nnc(NC(=O)CSc2nnc(-c3cccnc3)n2C)s1	9	5	1.2	i	-1	-4.8	-6	-6	-2	-0.4
CC(=O)Nc1ccc(NC(=O)CN(C)S(=O)(=O)c2ccc3c(c2)CCC(=O)N3)cc1	15	0	4.1	i	-10	-1.9	-2	-3	20	-0.4
CCOc1ncccc1-c1nc(-c2cccs2)no1	-4	1	-0.3	i	11	-3.6	-1	4	-6	-1.5
CCN(CC)c1ccc(C2C3CCCCC3(O)CCN2CC(=O)N2CCCCC2)cc1 (stereo not drawn)	.	.	.	.	9	.	3	99*	-4	-1.2
CCOC(=O)C1=C(O)/C(=C/c2ccc(OCC(=O)O)c(OCC)c2)SC1=Nc1ccc(OC)cc1	.	.	.	.	10	3.3	-5	26	0	-3.5
CCOc1ccccc1OCCCC(=O)N1CCN(S(=O)(=O)c2ccc(C)cc2)CC1	.	.	.	.	1	.	-8	-6	17	-1.2
CC(C)C(=O)c1cn(CC(=O)N2CCCc3ccccc32)c2ccccc12	.	.	.	.	24	.	-5	-3	23	2.4
NC(=O)c1ccsc1NC(=O)COC(=O)COc1ccccc1F	5	3	-3.0	i	-7	4.2	0	78*	4	?
Cc1ccc(P(=O)(CSC(=N)N)c2ccc(C)cc2)cc1	16	4	0.5	.	16	-4.4	-23	54	-15	-1.5
COc1cc(C#N)c(NS(=O)(=O)c2ccc3[nH]c(=O)sc3c2)cc1OC	-2	1	-0.8	i	-15	-0.7	-3	3	4	3.5
CCc1cc(C)c(O)c(CC)n1	.	.	.	.	-38	.	0	-10	4	2.4
COC(=O)c1[nH]c2cc(C)ccc2c1NC(=O)CN1CCN(c2ccccc2OC)CC1	.	.	.	.	20	.	16	-5	-9	-2.2

For convenience, 9 of the compounds above:
SMILES	rRNA inh HTS	rRNA inh HTS OD600	rRNA inh HTS RFP	FGF22 binding	T cruzi repl	MLL AF4-AF9 inh	Beta apoptosis	ALR H2O2 inh	Calb FLC	RanGTP-Impb inh
CCc1nnc(NC(=O)CSc2nnc(-c3cccnc3)n2C)s1	9	5	1.2	i	-1	-4.8	-6	-6	-2	-0.4
CC(=O)Nc1ccc(NC(=O)CN(C)S(=O)(=O)c2ccc3c(c2)CCC(=O)N3)cc1	15	0	4.1	i	-10	-1.9	-2	-3	20	-0.4
CCOc1ncccc1-c1nc(-c2cccs2)no1	-4	1	-0.3	i	11	-3.6	-1	4	-6	-1.5
CCN(CC)c1ccc(C2C3CCCCC3(O)CCN2CC(=O)N2CCCCC2)cc1 (stereo not drawn)	.	.	.	.	9	.	3	99*	-4	-1.2
CCOC(=O)C1=C(O)/C(=C/c2ccc(OCC(=O)O)c(OCC)c2)SC1=Nc1ccc(OC)cc1	.	.	.	.	10	3.3	-5	26	0	-3.5
CCOc1ccccc1OCCCC(=O)N1CCN(S(=O)(=O)c2ccc(C)cc2)CC1	.	.	.	.	1	.	-8	-6	17	-1.2
CC(C)C(=O)c1cn(CC(=O)N2CCCc3ccccc32)c2ccccc12	.	.	.	.	24	.	-5	-3	23	2.4
NC(=O)c1ccsc1NC(=O)COC(=O)COc1ccccc1F	5	3	-3.0	i	-7	4.2	0	78*	4	?
Cc1ccc(P(=O)(CSC(=N)N)c2ccc(C)cc2)cc1	16	4	0.5	.	16	-4.4	-23	54	-15	-1.5

More entries:
SMILES	rRNA inh HTS	rRNA inh HTS OD600	rRNA inh HTS RFP	FGF22 binding	T cruzi repl	MLL AF4-AF9 inh	Beta apoptosis	ALR H2O2 inh	Calb FLC	RanGTP-Impb inh
CC(C)c1ccc(NC2CCCN(C(=O)c3ccoc3)C2)cc1 (stereo not drawn)	0	-19	-7.7	i	7	4.5	-4	99*	-23	-0.4
COc1ccc(CN2CCN(Cc3cc(=O)oc4cc(C)ccc34)CC2)c(OC)c1OC	0	-1	-5.1	i	22	1.0	3	-9	-5	-3.7
COc1ccc(C(=O)Nc2nnc(SCC(=O)NCC3CCCO3)s2)cc1OC (stereo not drawn)	22	15	0.9	i	-12	-2.9	0	-5	9	1.5
CC(C)c1ccc(NC(=O)C2CCN(C(=O)[C@@H]3Cc4ccccc4CN3)CC2)cc1	-7	-5	1.4	i	18	6.2	7	-6	6	?
C=CCc1ccccc1Oc1cc(F)nc(N)n1	-17	-17	-2.5	i	-6	0.8	-7	-1	-10	0.7
O=C(CN1CCCCC1)N/N=C/c1ccccc1OCc1ccccc1	6	-4	-1.3	i	-2	-5.1	.	-5	-4	-4.5
Cc1cc(Br)ccc1OCC(=O)N1CCCCCC1	.	.	.	.	7	.	3	0	-1	2.8
CC1CN(C)C(C)C/C1=N\Oc1ccc([N+](=O)[O-])cc1 (stereo not drawn)	2	3	4.0	i	48	3.6	-2	-5	-41	1.3
Cc1ccc(CNC(=S)NCc2ccncc2)cc1	0	-2	-4.4	i	.	-0.9	2	.	13	-1.5
COc1ccc(OC)c(-c2cc(C(=O)N3CCCc4ccccc43)no2)c1	.	.	.	.	21	.	5	5	-3	?
O=C(O)CCN1CCc2ccccc2C1c1ccncc1 (stereo not drawn)	20	17	3.3	i	-13	-7.7	0	-7	-1	-1.5
Cn1c(=O)c2c(nc(SCC(=O)Nc3ccccc3N3CCCCC3)n2C)n(C)c1=O	-2	-9	3.8	i	0	-4.1	2	2	7	-0.3
Cc1ccc(S(=O)(=O)NCC(=O)OCC(=O)NCc2cccs2)cc1	1	7	-1.4	i	-12	-0.7	-3	-10	2	-3.8
COc1cc(OC)cc(-c2c(C#Cc3ccsc3)c3cc(-c4ccc(SC)cc4)ccc3n2C)c1	-5	-18	-1.4	i	.	1.0	0	-5	.	.
COc1ccc(CCNC(=O)C(=O)NCC2OCCN2S(=O)(=O)c2ccc(Br)cc2)cc1 (stereo not drawn)	6	3	-0.9	i	-21	-0.5	9	-5	2	5.1
CCOC(=O)N1CCN(S(=O)(=O)c2c(C)nc3scc(C)n3c2=O)CC1	3	7	2.0	i	-12	0.0	-1	-12	-4	5.0
CC1CCN(CC(=O)c2c[nH]c3ccccc23)CC1	.	.	.	.	17	.	-9	-7	-32	2.0
O=S(=O)(c1ccc(Cl)cc1Br)N1CCCCC1	.	.	.	.	2	.	-3	-10	-21	2.8
Cc1ccc(N2C(=O)C3ON(c4ccccc4)C(c4ccncc4)C3C2=O)cc1 (stereo not drawn)	.	.	.	.	-15	.	-1	0	-3	-3.7
CC(C)N(CCO)C(=O)CCc1nnc(CCCc2ccccc2)o1	5	3	-1.7	i	-3	-1.8	-15	-19	?	1.1
Cc1ccnc2nc(C(=O)Nc3ccc(S(=O)(=O)N4CCCC4)cc3)nn12	2	8	1.5	i	-39	0.8	-3	-5	-17	6.4
COc1cccc(-c2sc3ccccc3c2-c2ccc(OCCN3CCCC3)cc2)c1	15	12	-0.2	i	.	?	5	-7	.	.
CC1=C(C(=O)OCc2ccccc2)C(c2cccnc2)n2ncnc2N1 (stereo not drawn)	.	.	.	.	14	.	-4	-6	-1	-0.1
CC(C)C(NC(=O)C1CCCCC1)C(=O)Nc1ccc2c(c1)OCCO2 (stereo not drawn)	.	.	.	.	8	.	-6	-17	-2	2.3
CCCc1cc(=O)oc2cc(C)cc(OCc3nn[nH]n3)c12	.	.	.	.	0	.	-4	23	-3	0.7
Cc1cc(C)c(NS(=O)(=O)c2c(C(=O)N3CCOCC3)c(C)n(C)c2C)c(C)c1	12	12	-0.6	i	-6	-3.0	1	-3	11	-0.1
COc1ccc(S(=O)(=O)NC2CCCCC2)cc1F	1	-4	0.4	i	-12	-1.8	-3	-7	-2	3.8
O=C(COC(=O)c1ccccc1N1C(=O)C2C3CCC(C3)C2C1=O)c1ccccc1 (stereo not drawn)	.	.	.	.	-7	.	-2	-1	0	-0.6
S=c1[nH]nc(-c2cc(-c3ccccc3)n[nH]2)n1/N=C/c1ccc(Br)s1	4	15	5.1	i	17	-8.5	-10	9	11	3.8
Cc1ccc(OCCC(=O)Nc2c(C)n(C)n(-c3ccccc3)c2=O)cc1	.	.	.	.	-4	.	-3	-5	5	0.9
CN(C)CCCN(C(=O)c1ccc(S(=O)(=O)N(C)Cc2ccccc2)cc1)c1nc2c(F)cccc2s1	-33*	-15*	3.0*	i	36	11	-3	-11	5	-1.6
Cc1c(C)c2ccc(OCC(=O)Nc3ccc(CN4CCOCC4)cc3)cc2oc1=O	-1	0	2.2	i	-7	-6.7	0	-2	2	0.1
O=c1c2ccccc2ncn1Cc1ccco1	8	11	-12	i	1	9.1	4	0	63	0.6
COc1ccc(CCN2CC34C=CC(O3)C(C(=O)NCc3ccccc3Cl)C4C2=O)cc1OC (stereo not drawn)	.	.	.	.	3	.	-3	-1	20	2.5
CC1CCN(C(=O)C(C)Sc2nc(-c3ccccc3)cc(C(F)(F)F)n2)CC1 (stereo not drawn)	.	.	.	.	?	.	15	.	4	0.9
CN(C)S(=O)(=O)c1ccc(NC(=O)CSc2nnc(-c3ccco3)o2)cc1	-1	9	-3.4	i	.	0.0	-12	-2	.	.
CCOc1ccc(NC(=O)C(c2ccccn2)N(C(=O)CCl)c2ccc(OC)cc2)cc1 (stereo not drawn)	9	18	11	i	-16	-4.1	-2	16	0	9.1
COc1ccc(NC(C)=O)cc1S(=O)(=O)NC(C)c1ccc(-n2ccnc2)cc1 (stereo not drawn)	6	13	-3.5	i	.	-0.3	-1	-2	.	.
Cc1sc(N)nc1-c1c(C)n(C)c2ccccc12	-3	0	3.0	i	1	1.1	0	99*	-7	-3.2
CCOc1ccc(N=C(C)c2ccccc2O)cc1	6	0	-3.9	i	20	8.2	-7	-12	4	-4.5
O=C(CN1CCCC1)N1c2ccccc2Sc2ccccc21	.	.	.	.	11	.	-8	.	4	5.1
CC1=NC(Nc2nc(C)c3ccccc3n2)=NC(C)(C)C1	.	.	.	.	40	.	8	-7	-42	30*
